Source: PubChem BioAssay
Rango release inh: inhibitors of RanGTP-induced Rango-importin beta complex dissociation. AID 540253. Potency, µM (doses to about 46.1 µM), for the others: at the highest dose activity change, negative = inhibition. actives 0.071% (n = 340,000). Biochemical FRET Rango-importin beta, RanGTP-induced dissociation. O95149+P62826; active means falling FRET ratio curve, often poorly fitted, with flat reads before Ran was added; inconclusive means other falling curves, or compound fluorescence or quenching; inactive means flat or rising ratio curve;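 also: potency is read from the fitted curve at half-maximal effect; % of control where 0% means no effect; nearly all actives have a fitted effect of over 45% in size; -100% = wells without RanGTP and RCC1; the record marks most hits as doubtful in a second field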
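Compounds sat 5 min at room temperature with 0.1 uM Rango biosensor plus 0.25 uM importin beta, then FRET pre-read. RanGTP-RCC1 (0.6 uM Ran, 2mM GTP, 0.2 uM RCC1) added for 45 min, and the CFP/YFP post-read measured blocked complex dissociation.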
GLA inh pH 4.5: inhibitors of human alpha-galactosidase A at pH 4.5; P06280; purified enzyme, 4-MU-alpha-Gal fluorescence, pH 4.5; activity change, negative = inhibition, % at 105 µM; 230,000 tested, under 10 active; AID 1467; inconclusive = small, poorly fitted or top-dose-only inhibition, or a rising curve; inactive = flat fitted curve, though single readings scatter; no compound was filed as active;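 also: 0% = full activity with enzyme and -100% = basal without enzyme; dose as in the result columns while the protocol names 77 µM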
Target sequence (P06280 whole entry, looked up): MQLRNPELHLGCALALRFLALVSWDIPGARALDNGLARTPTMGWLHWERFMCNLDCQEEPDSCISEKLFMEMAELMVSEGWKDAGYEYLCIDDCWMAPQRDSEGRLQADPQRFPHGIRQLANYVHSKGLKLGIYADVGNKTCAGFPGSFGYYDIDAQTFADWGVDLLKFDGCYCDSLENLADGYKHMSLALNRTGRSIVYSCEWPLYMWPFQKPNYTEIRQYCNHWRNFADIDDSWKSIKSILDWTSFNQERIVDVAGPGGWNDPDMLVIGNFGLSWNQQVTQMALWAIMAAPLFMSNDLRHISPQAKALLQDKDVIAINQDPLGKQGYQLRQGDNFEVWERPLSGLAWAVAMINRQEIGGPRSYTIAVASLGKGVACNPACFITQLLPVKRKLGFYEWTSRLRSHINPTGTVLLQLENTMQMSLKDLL
miR-21 reporter: miR-21 reporter, rising signal. HeLa miR-21 FLuc reporter, luciferase, 48 h. Potency, µM (highest dose often 38.3 µM), without a hit: top-dose reporter change, positive = more light. 340,000 tested, under 10 active. AID 2288; active = well fitted rising curve with a large enough effect; inconclusive = small, poorly fitted or top-dose-only effect; inactive = no such curve, though single readings can be large or run the other way;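 also: % of control where 0% means no effect; miR-21 action dims this reporter so a rising signal means less miR-21 action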
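Luminescence from a firefly luciferase reporter carrying a miR-21 binding site downstream, stably expressed under a CMV promoter in HeLa cells that make miR-21 endogenously, reports miRNA modulation after 48 h compound exposure up to approximately 40uM final.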
Rango-impB inh: Rango-importin beta binding inhibition | AID 540263 | Q14974 | actives 0.031% (n = 340,000) | Potency, µM (highest dose often 92.2 µM), for inactives: at the top dose inhibition of complex formation | Rango CFP/YFP FRET sensor + importin beta, 45 min; active = rising FRET ratio curve, often small or poorly fitted; inconclusive = mostly compound fluorescence or quenching in the first reads; inactive = flat curves in all reads;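 also: potency is read from the fitted curve at half-maximal effect; 0% = DMSO wells and 100% = buffer wells lacking importin beta; nearly all actives have a fitted effect of over 15% in size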
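FRET biosensor Rango (snurportin 1 IBB between N-terminal EYFP and C-terminal Cerulean), 50 nM in PBS/1 mM DTT/0.02% Tween-20/0.1% BSA, preincubated 5 min RT with compound; 0.125 microM importin beta added, 45 min RT, CFP/YFP FRET ratio read.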
Active calls of the source: *; ? = inconclusive; · = no result given. An excerpt, so the mix of outcomes need not match the whole.

1	Fc1cccc(Cl)c1Cn1nnc2c(NCc3ccncc3)ncnc21
2	COc1ccc(-c2nnc(N(C)C(=O)c3ccco3)s2)cc1OC
3	COc1ccc(/C=C(/CC(=O)Nc2ccc(C)cc2)c2nc3ccccc3s2)cc1
4	Cc1c(Br)c([N+](=O)[O-])nn1CC(=O)Nc1ccc(CC#N)cc1
5	COc1ccc(NC(=O)CCN2C(=O)c3ccncc3C2=O)cc1OC
6	COC(=O)N1[C@H](C)C=C[C@]1(Cc1ccccc1)C(=O)OC

Screen / compound no.	1	2	3	4	5	6
miR-21 reporter	8%	-10%	-18%	-3%	0%	·
Rango-impB inh	?	-0.5%	2.2%	·	2.7%	-0.5%
Rango release inh	-1%	6%	-3%	·	-10%	9%
GLA inh pH 4.5	7	·	-2	-1	4	4

7	CCOC(=O)c1c(NC(=O)CSc2nnc(Cc3ccccc3)o2)sc(C(C)=O)c1C
8	C=CCSc1nc2c(c(=O)[nH]c(=O)n2C)n1Cc1ccc(C)cc1
9	Cc1[nH]nc(SCC(=O)N2CCC(C)CC2)c1[N+](=O)[O-]
10	O=C(O)C1(P(=O)(c2ccc(Cl)cc2)c2ccc(Cl)cc2)CCCC1
11	Nc1ccc(CN2CCCCCC2)cc1
12	COC(=O)c1ccc(NC(=O)CN2C(=O)CSC2=O)cc1

Screen / compound no.	7	8	9	10	11	12
miR-21 reporter	-1%	-16%	-28%	-2%	0%	-3%
Rango-impB inh	?	2.9%	0.8%	0.0%	-2.5%	3.5%
Rango release inh	?	32%	-4%	6%	-2%	-2%
GLA inh pH 4.5	-1	3	-3	11	3	-2

Complete entries, quoted from the list. Order of values: miR-21 reporter	Rango-impB inh	Rango release inh	GLA inh pH 4.5
`C=CCSc1nc2c(c(=O)[nH]c(=O)n2C)n1Cc1ccc(C)cc1` across the screens: -16%	2.9%	32%	3
`Fc1cccc(Cl)c1Cn1nnc2c(NCc3ccncc3)ncnc21` across the screens: 8%	?	-1%	7
`O=C(O)C1(P(=O)(c2ccc(Cl)cc2)c2ccc(Cl)cc2)CCCC1` across the screens: -2%	0.0%	6%	11
`COc1ccc(-c2nnc(N(C)C(=O)c3ccco3)s2)cc1OC` across the screens: -10%	-0.5%	6%	·

Next entries follow.
13	Cc1cc(=O)oc2c(C)c(OCC(=O)N3CCN(c4ccccc4)CC3)ccc12
14	CC(O)c1cccc(NC(=O)C2CCCCC2)c1 (stereo not drawn)
15	Cc1ccc(NC(=S)N(CCCN2CCCC2)Cc2cccn2Cc2ccc(Cl)cc2)cc1C
16	N#Cc1c(-c2ccc(Cl)cc2)n(O)c2ccccc12
17	Cn1cc(C(=O)NCCN2CCN(c3cccc(Cl)c3)CC2)c2c3ccccc3n(C)c2c1=O
18	CC(C)COc1ccc(CN=C(N)N=C(N)N)cc1Cl

Screen / compound no.	13	14	15	16	17	18
miR-21 reporter	-5%	-3%	-5%	·	-3%	8%
Rango-impB inh	6.1%	-3.2%	2.6%	-4.1%	-2.4%	4.8%
Rango release inh	7%	14%	-5%	-3%	-1%	12%
GLA inh pH 4.5	·	9	-14	·	2	0

19	CN(C)S(=O)(=O)c1cc(NC(=O)CNCCN2CCOCC2)ccc1Cl
20	Cc1cc(C)c(NC(=O)COC(=O)CCc2ccc(S(=O)(=O)N3CCCCC3)cc2)c(C)c1
21	CC(C)c1ccc2c(c1)C1(NN=C(c3ccccc3)S1)C(=O)N2 (stereo not drawn)
22	O=C(CC1S/C(=N/N=C/c2cccs2)NC1=O)Nc1ccc(Cl)cc1 (stereo not drawn)
23	CN(C)C(=O)c1ccc(NC(=O)COC(=O)C2(c3ccccc3)CCCC2)cc1
24	O=C(Nc1cccnc1)c1cc(S(=O)(=O)N2CCOCC2)ccc1Br

Screen / compound no.	19	20	21	22	23	24
miR-21 reporter	-4%	-7%	-1%	-10%	·	-4%
Rango-impB inh	-5.0%	-1.3%	?	3.5%	1.6%	4.8%
Rango release inh	-4%	-1%	?	6%	-16%	3%
GLA inh pH 4.5	-13	-3	3	-11	·	·

25	OCCC1CN(Cc2cc3c(cc2Cl)OCO3)CCN1C1CCCCC1 (stereo not drawn)
26	Cc1cccc(Nc2nc(-c3ccccn3)cs2)n1
27	CC(=O)Nc1cccc(C2=CC(c3ccco3)n3ncnc3N2)c1 (stereo not drawn)
28	NNC(=O)COc1cccc(C(F)(F)F)c1
29	FC(F)(F)c1nc(=S)c2ccccc2[nH]1
30	Cc1cc(/C=C(\C#N)C(=O)OCC(=O)NC(=O)NC(C)(C)C)c(C)n1CCC(C)C

Screen / compound no.	25	26	27	28	29	30
miR-21 reporter	2%	15%	-1%	0%	0%	-14%
Rango-impB inh	-2.0%	0.4%	·	1.6%	1.1%	?
Rango release inh	-9%	10%	·	15%	-14%	-12%
GLA inh pH 4.5	10	2	1	2	4	-14

31	COC(=O)C1=C(N)N(c2ccc(F)cc2)C2=C(C(=O)CCC2)C1c1ccc2c(c1)OCO2 (stereo not drawn)
32	C=CCn1c(SCC(=O)NCC)nnc1-c1cc2c(s1)CCC(CC)C2 (stereo not drawn)
33	N/C(=N\OC(=O)COc1ccc2ccccc2c1Br)c1ccccn1
34	CCOC(=O)Cc1ncccc1C(=O)Nc1ccc(OC(F)(F)F)cc1
35	COc1cc(C)c(NC(=S)Nc2cccc(Cl)c2C)cc1OC
36	Cn1ncc(Br)c1C(=O)N1CCCCCC1

Screen / compound no.	31	32	33	34	35	36
miR-21 reporter	-5%	-93%	-65%	0%	-2%	3%
Rango-impB inh	-1.0%	2.3%	5.4%	0.0%	3.7%	2.4%
Rango release inh	-10%	2%	-6%	-14%	2%	1%
GLA inh pH 4.5	-4	3	-3	-3	-9	·

Just Rango-impB inh, miR-21 reporter and Rango release inh, for 5 of the compounds above:
No.	smiles	Rango-impB inh	miR-21 reporter	Rango release inh
35	COc1cc(C)c(NC(=S)Nc2cccc(Cl)c2C)cc1OC	3.7%	-2%	2%
31	COC(=O)C1=C(N)N(c2ccc(F)cc2)C2=C(C(=O)CCC2)C1c1ccc2c(c1)OCO2 (stereo not drawn)	-1.0%	-5%	-10%
33	N/C(=N\OC(=O)COc1ccc2ccccc2c1Br)c1ccccn1	5.4%	-65%	-6%
34	CCOC(=O)Cc1ncccc1C(=O)Nc1ccc(OC(F)(F)F)cc1	0.0%	0%	-14%
32	C=CCn1c(SCC(=O)NCC)nnc1-c1cc2c(s1)CCC(CC)C2 (stereo not drawn)	2.3%	-93%	2%

The results go on:
37	O=C(Cn1nnc(-c2ccc(N3CCOCC3)cc2)n1)N1CCOCC1
38	COc1cc2ncc(S(=O)(=O)c3ccccc3)c(N3CCC4(CC3)OCCO4)c2cc1OC
39	COc1ccc(-c2nn(-c3ccccc3)cc2/C=N/Nc2ccccn2)cc1
40	COc1ccc(CN2CCc3c([nH]c4ccccc34)C2)c(OC)c1C
41	CCOc1ccc(C2C(C(N)=O)=C(C)Nc3ncnn32)cc1OC (stereo not drawn)
42	COc1cccc(NS(=O)(=O)c2ccc3c(c2)n(C)c(=O)c(=O)n3C)c1

Screen / compound no.	37	38	39	40	41	42
miR-21 reporter	-27%	1%	-1%	24%	0%	3%
Rango-impB inh	3.1%	0.5%	·	5.8%	0.2%	-8.3%
Rango release inh	13%	-13%	·	4%	-7%	4%
GLA inh pH 4.5	8	2	6	·	·	1

43	Cc1cccc(Oc2nc(-c3ccccc3)cc(C)c2S(C)(=O)=O)c1C
44	C1CNCCNCCCNCCNC1
45	CCc1cc(Br)ccc1NC(=S)NCCc1ccccc1
46	O=C(O)CC(Cc1ccc(Cl)cc1)C(=O)NCc1ccccc1 (stereo not drawn)
47	COc1cc(C2CC(=O)N(CC(=O)NCC3CCCO3)c3ccccc3S2)cc(OC)c1OC (stereo not drawn)
48	O=C(CCC(=O)N1CCOc2ccccc21)Nc1ccccc1Cl

Screen / compound no.	43	44	45	46	47	48
miR-21 reporter	12%	-2%	4%	-2%	4%	-5%
Rango-impB inh	4.6%	·	0.4%	-0.4%	-1.0%	3.7%
Rango release inh	1%	·	10%	2%	0%	13%
GLA inh pH 4.5	-4	1	·	7	9	·

49	O=C(CC(c1ccccc1)c1ccccc1O)NCCc1ccccc1 (stereo not drawn)
50	COc1ccc(C2=NCCn3c2c2ccc(C(F)(F)F)cc2[n+]3[O-])cc1
51	O=S(=O)(NCc1c(Cl)cccc1Oc1ccccc1)c1ccccc1
52	COc1ccc(C2=CC(=O)C[C@H](c3ccc4c(c3)OCO4)C2)cc1
53	Cn1c(=O)n(C)c2cc(NC(=O)CSc3nc4ccccc4c(=O)[nH]3)ccc21
54	CCCC(C(=O)NC(C)(C)C)N(C(=O)c1snc(C(N)=O)c1N)c1ccc2c(c1)OCCO2 (stereo not drawn)

Screen / compound no.	49	50	51	52	53	54
miR-21 reporter	8%	·	20%	·	-3%	-24%
Rango-impB inh	-0.1%	-0.3%	-1.9%	-3.3%	?	-0.5%
Rango release inh	4%	1%	-6%	0%	0%	6%
GLA inh pH 4.5	·	·	-4	·	·	-6

55	COC(=O)c1ccc(Nc2cc(C)nc(-c3ccccc3O)n2)cc1
56	Cc1ccc(NC(=O)c2ccc3c(c2)OCO3)cc1Cl
57	CS(=O)(=O)N1CCN(C(=O)Cc2ccc([N+](=O)[O-])cc2)CC1
58	CC1CCCC(NC(=O)C2CCN(S(=O)(=O)N3CCC4(CC3)OCCO4)CC2)C1C (stereo not drawn)
59	CCOC(=O)C1CCN(C(=O)CSc2cc(=O)n(CC)c3ccccc23)CC1
60	COc1cccc2sc(/N=C/N(C)C)nc12

Screen / compound no.	55	56	57	58	59	60
miR-21 reporter	-3%	-34%	2%	-1%	3%	-20%
Rango-impB inh	-2.4%	0.5%	-1.4%	-0.5%	4.3%	-0.1%
Rango release inh	5%	21%	1%	2%	-9%	-13%
GLA inh pH 4.5	-1	·	·	7	-3	2

61	CN(C)S(=O)(=O)c1cccc(NC(=O)c2cc(=O)[nH]c3ccccc23)c1
62	CC(C)(C)C(=O)Nc1ccccc1C(=O)NCCCn1ccnc1
63	COC(=O)[C@]1(Cc2ccccc2)N[C@H](CN(C)C(=O)Nc2ccc(Cl)cc2)[C@@H]2C(=O)N(Cc3ccccc3)C(=O)[C@@H]21
64	Cc1ccc(S(=O)(=O)NNC(=O)c2sc(NS(=O)(=O)c3ccccc3)nc2C)cc1
65	OCc1ccccc1OCCOc1ccc(Cl)c2cccnc12
66	CCc1sc(C(=O)NC)cc1Br

Screen / compound no.	61	62	63	64	65	66
miR-21 reporter	1%	-1%	·	-1%	-43%	-12%
Rango-impB inh	-0.7%	3.0%	-0.7%	2.6%	3.6%	0.4%
Rango release inh	-9%	14%	-6%	-18%	-4%	-2%
GLA inh pH 4.5	5	0	·	·	-24	-1

67	CCC(C)NC(=O)C1CCN(S(=O)(=O)c2ccc3[nH]c(=O)ccc3c2)CC1 (stereo not drawn)
68	Cn1cc(/C=C(\NC(=O)c2ccccc2)C(=O)N2CCOCC2)c2ccccc21
69	CCCC1OC23CCCCC2C(C#N)(C#N)C1(C#N)C(=N)O3 (stereo not drawn)
70	COc1cc(S(=O)(=O)N2CCOCC2)ccc1NC(=O)COC(=O)c1cc(OC)c(OC)c(OC)c1
71	O=C(NN1C(=O)c2ccccc2NC1c1ccc([N+](=O)[O-])o1)c1ccc(Br)cc1 (stereo not drawn)
72	Cc1nn(C)c(Cl)c1CN1CCCC(CCC(=O)NCc2ccccc2F)C1 (stereo not drawn)
73	O=S(=O)(Nc1c(F)cccc1F)c1ccc(Cl)nc1

Screen / compound no.	67	68	69	70	71	72	73
miR-21 reporter	-4%	0%	-2%	·	10%	1%	·
Rango-impB inh	0.5%	-0.3%	?	0.0%	-3.3%	-0.9%	1.6%
Rango release inh	16%	-3%	?	-10%	-18%	6%	17%
GLA inh pH 4.5	·	·	26	·	-7	7	·
